# Cruzain Triton: qHTS Assay for Promiscuous and Specific Inhibitors of Cruzain (with detergent). 200,000 tested, 0.43% active. purified cruzain, Z-FR-AMC fluorescence, 0.01% Triton. Potency, µM, for the others: max response, negative = inhibition, hits mostly inhibitors. Cruzipain (Trypanosoma cruzi), P25779; active = well fitted curve in the direction sought with a large enough effect; inconclusive = small, poorly fitted or top-dose-only effect, or another doubt; inactive = no such curve, though single readings can be large; an effect the other way counts as inactive or inconclusive;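 note: plate controls were neutral wells for no effect and buffer without enzyme for full effect; nearly all actives have a fitted effect of over 40% in size; top concentration of the series not given in the record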
# Target sequence (P25779 123-467 limits assumed): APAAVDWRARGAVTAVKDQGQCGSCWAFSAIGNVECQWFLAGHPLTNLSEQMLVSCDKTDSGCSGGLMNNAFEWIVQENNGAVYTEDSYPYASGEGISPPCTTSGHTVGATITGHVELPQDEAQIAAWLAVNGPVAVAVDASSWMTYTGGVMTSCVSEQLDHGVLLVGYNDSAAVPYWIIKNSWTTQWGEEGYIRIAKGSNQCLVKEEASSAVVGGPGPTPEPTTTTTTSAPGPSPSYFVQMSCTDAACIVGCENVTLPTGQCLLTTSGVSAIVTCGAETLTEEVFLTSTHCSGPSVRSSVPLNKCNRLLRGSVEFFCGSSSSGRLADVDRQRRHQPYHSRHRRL
#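 In this qHTS format, compounds are incubated with 1.5 nM cruzain for 15 min at room temperature before 2 uM Z-FR-AMC is added. Release of AMC is followed at 360/450 nm, and progress is taken as the 60 s fluorescence difference.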
# Lassa entry inh: qHTS for Inhibitors of binding or entry into cells for Lassa Virus | Lassa virus pseudotype entry inhibition, cell reporter; control for the full effect not named in the record | Potency, µM (titrated, usually from 37.9 µM), for the others: top-dose activity change, negative = inhibition, hits mostly inhibitors | 300,000 tested, 1.2% active; active means well fitted inhibition curve with a large enough effect; inconclusive means small, poorly fitted or top-dose-only effect, or effect the other way; inactive means flat fitted curve, though single readings scatter; tested in HEK293 cells; note: % is set by controls: 0 for no effect and ±100 for the full control effect; nearly all actives have a fitted effect of over 50% in size; luciferase read-out
# MARV entry inh: qHTS for inhibitors of binding or entry into cells for Marburg Virus; Marburg virus pseudotyped entry inhibition, cell reporter; control for the full effect not named in the record; about a third of the inactives were read at about 46 µM; Potency, µM (series often up to 37.8 µM), for inactives: top-dose activity change, negative = inhibition, most hits filed as inhibitors; 300,000 tested, 1.8% active; AID 540276, 2011; active = well fitted inhibition curve with a large enough effect; inconclusive = small, poorly fitted or top-dose-only effect, or effect the other way; inactive = flat fitted curve, though single readings scatter; tested in HEK293 cells; about a fifth of its hits are not listed in these tables; note: % is set by controls: 0 for no effect and ±100 for the full control effect; luciferase read-out
# 2A StopGo: High Throughput Screening for Foot and Mouth Disease Virus Antivirals. human cells with a luciferase reporter of 2A StopGo recoding; control for the full effect not named in the record. Potency, µM (highest dose often 57.9 µM), for inactives: top-dose signal change, negative = less light. 410,000 tested, 1.2% active. AID 1159524, 2015; active = well fitted falling curve with a large enough effect; inconclusive = small, poorly fitted or top-dose-only effect; inactive = no such curve, though single readings can be large or run the other way; tested in HEK293T cells; note: % is set by controls: 0 for no effect and ±100 for the full control effect; nearly all actives have a fitted effect of over 45% in size; luciferase light after 4 h
# SARS PLpro yeast: qHTS of Yeast-based Assay for SARS-CoV PLP; S. cerevisiae expressing SARS-CoV PLpro, growth rescue; control for the full effect not named in the record; Potency, µM (highest dose often 32.9 µM), without a hit: at the highest dose activity, positive = growth rescue; 330,000 tested, 0.19% active; note: 0% is about no effect; nearly all actives have a fitted effect of over 55% in size; growth read by luminescence after 48 h
# Cruzain noTriton: qHTS Assay for Promiscuous and Specific Inhibitors of Cruzain (without detergent); purified cruzain, Z-FR-AMC fluorescence, no detergent; Potency, µM, for inactives: max response, negative = inhibition, usual class: inhibitors; 200,000 tested, 2.3% active; active = well fitted curve in the direction sought with a large enough effect; inconclusive = small, poorly fitted or top-dose-only effect, or another doubt; inactive = no such curve, though single readings can be large; an effect the other way counts as inactive or inconclusive;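 note: plate controls were enzyme without inhibitor for no effect and buffer without enzyme for full effect; nearly all actives have a fitted effect of over 40% in size; top concentration of the series not given in the record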
#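 Purified cruzain at 1.5 nM, pre-incubated 15 min with compound at room temperature in 100 mM sodium acetate pH 5.5, 5 mM DTT, 0.00005% Triton X-100. Reaction started with 2 uM Z-FR-AMC; AMC fluorescence increase over 60 s gives rate.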
# RE007 growth inh: qHTS Assay for Inhibitors of the HIV-1 protein Vpr; S. pombe RE007 Vpr strain, BacTiter-Glo ATP luminescence, 24 h; control for the full effect not named in the record; Potency, µM (series often up to 92.2 µM), without a hit: top-dose activity change, negative = less growth; 360,000 tested, 0.21% active; AID 651644, 2012; active = well fitted falling curve with a large enough effect; inconclusive = small, poorly fitted or top-dose-only effect; inactive = no such curve, though single readings can be large or run the other way;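 note: % is set by controls: 0 for no effect and ±100 for the full control effect; nearly all actives have a fitted effect of over 50% in size; the assay follows cell death caused by Vpr and the record does not say whether a fall means rescue or toxicity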
#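 Fission yeast strain RE007, carrying one chromosomally integrated HIV-1 vpr copy, was seeded at OD 0.01 in PMG+AL medium with 23 nL pinned compound. After 24 h at 30 °C and 99% humidity, viability was read by BacTiter-Glo luminescence.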
# NS1 inh: qHTS Assay for Inhibitors of Influenza NS1 Protein Function. S. cerevisiae slowed by influenza A NS1, growth recovery by OD600. Potency, µM (series often up to 46.1 µM), for the others: top-dose activity, positive = more growth. AID 2326, 2010. 270,000 tested, 0.4% active; note: actives are rising curves; nearly all actives have a fitted effect of over 50% in size
#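 Read-out: OD600 growth recovery of NS1-expressing budding yeast. Cells grown overnight at 30C in -URA glucose medium, washed, resuspended and diluted 1:100 in 2% galactose assay medium, pH 6.0. Same strain lacking NS1 served as positive control.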
# * marks the source's active call; other numbers are inactive results; ? = inconclusive; . = not tested or not shown; & = joins results of further samples; [ ] = another dose, or the depositor's remark. Unless noted, calls come from the whole dose curve; as a rule, active means well fitted rising curve with a large enough effect; inconclusive means small, poorly fitted or top-dose-only effect; inactive means no such curve, though single readings can be large or run the other way. Potency is the fitted concentration of half-maximal effect.
# Values run as follows: Cruzain Triton	Lassa entry inh	MARV entry inh	2A StopGo	SARS PLpro yeast	Cruzain noTriton	RE007 growth inh	NS1 inh
Cc1occc1-c1nnc(SCC(=O)NC2CCCCC2C)o1 (stereo unspecified)
 : .	-10%	0%	-9%	8%	.	-26%	.
O=C(Nc1ccc2oc(-c3ccc(Cl)cc3)nc2c1)c1ccc2ccccc2c1
 : 0.3%	4%[46.1 µM]	.	-12%	.	-8%	.	.
N#Cc1cc(C(=O)c2cc(Cl)ccc2O)cn(-c2ccccc2)c1=O
 : -8.9%	-4%	-17%	-20%	7%	-19%	14%	-14%
COc1ccc(C(=O)Cn2nnc(-c3ccccc3NC(=O)c3ccco3)n2)cc1
 : -16%	?	?	0%	3%	?	5%	10µM*
CC(=O)NCc1ccc(C(=O)CSc2nnc(-c3ccncc3)n2Cc2ccccc2)o1
 : -4.7%	1%	-4%	2%	2%	?	4%	2%
O=[N+]([O-])c1ccccc1/C=N/N1CCN(c2ccncc2S(=O)(=O)N2CCCCC2)CC1
 : -7.0%	?	?	?	-58%	?	4%	22%
CS(=O)(=O)c1ccc(Cl)c(NC(=O)CSc2n[nH]c(N)n2)c1
 : .	-10%	-2%	-18%	-2%	.	-22%	.
O=C(NNC(=O)c1ccccc1O)c1ccc(NS(=O)(=O)c2ccc(F)c(F)c2)cc1
 : .	-9%	14%	9%	4%	.	-1%	.
CCCCn1c(N)c(N(CC)C(=O)c2cc(Br)ccc2Cl)c(=O)[nH]c1=O
 : .	.	28%[46.1 µM]	-11%	0%	.	-13%	.
CCOC(=O)C1CCCN(c2c(NCCc3cccc(C)c3)c(=O)c2=O)C1 (stereo unspecified)
 : .	.	.	4%	0%	.	10%	1%
COC(=O)c1[nH]c2cc(OC)c(OC)cc2c1NC(=O)c1cccc(OC)c1
 : -11%	?	?	-10%	0%	?	0%	4%
NCCCCCc1nnc(SCc2ccc(Cl)cc2Cl)o1
 : -0.2%	-16%	0%	-7%	-4%	3%	-19%[3.69 µM]	8%
Cc1ccccc1-c1ccnc2[nH]n(-c3ccccc3)c(=O)c12
 : 0.0%	11%&-3%[46.1 µM]	11%&1%[46.1 µM]	8%&52%	0%	-10%	5%	2%
O=C(c1cccnc1)N1CCN(C/C=C/c2ccccc2)CC1
 : .	-2%[46.1 µM]	-25%[46.1 µM]	6%	5%	.	-9%	.
O=C(NCCS(=O)(=O)c1ccc(Br)cc1)c1ccc(F)cc1
 : .	0%[46.1 µM]	-14%[46.1 µM]	-3%	-1%	.	-13%	1%

# Look-ups from the list.
# O=[N+]([O-])c1ccccc1/C=N/N1CCN(c2ccncc2S(=O)(=O)N2CCCCC2)CC1 in SARS PLpro yeast reads -58%
# Cc1occc1-c1nnc(SCC(=O)NC2CCCCC2C)o1 (stereo unspecified) in 2A StopGo reads -9%
# Cc1ccccc1-c1ccnc2[nH]n(-c3ccccc3)c(=O)c12 in RE007 growth inh reads 5%

# New compounds follow
# Values run as follows: Cruzain Triton	Lassa entry inh	MARV entry inh	2A StopGo	SARS PLpro yeast	Cruzain noTriton	RE007 growth inh	NS1 inh
COc1ccc(Cc2nn3c(-c4cc(OC)c(OC)c(OC)c4)nnc3s2)cc1
 : -8.9%	-24%	?	-16%	-5%	?	14%	-112%
COc1ccc(C(=O)Nc2ccc(S(=O)(=O)N3CCCC3)cc2)cc1[N+](=O)[O-]
 : .	-22%	9%	-20%	1%	.	?	4%
COC(=O)c1ccc2c(=O)n(CCN3CCOCC3)c(SCC(=O)Nc3ccccc3Cl)nc2c1
 : .	-3%[46.1 µM]	4%[46.1 µM]	-7%	-2%	.	-28%	1%
COc1ccc(-n2c(CN3CCC(C)CC3)nc3ccc([N+](=O)[O-])cc3c2=O)c(OC)c1
 : .	.	.	-15%	2%	.	-5%	5%
CCOC(=O)C(NCCCO)c1ccccc1 (stereo unspecified)
 : 8.1%	-7%	-1%	17%	-2%	0%	4%	-1%
COc1cccc(CN(Cc2ccco2)C(c2ccc(F)cc2)c2nnnn2C(C)(C)C)c1 (stereo unspecified)
 : -1.2%	?	?	?	-13%	-30%	-1%	-32%
O=c1c2ccccc2nc2n1C(CSCc1cccc(C(F)(F)F)c1)CS2 (stereo unspecified)
 : -2.2%	?	?	5.6µM*	-6%	7%	5%	4%
Cc1ccc(S(=O)(=O)NCCC(=O)N2CCCCCCC2)cc1
 : .	7%	1%	15%	4%	.	45%	.
COc1ccc(CO/N=C/c2c(C)[nH]c(=O)[nH]c2=O)cc1
 : 0.9%	-29%	1%	-14%	-5%	-5%	14%	-4%
Cc1ccc(-c2nnc(-c3ccccc3)c(N3CCOCC3)n2)cc1
 : -9.1%	-22%	?	?	-8%	-6%	-11%	-51%
CN(C)S(=O)(=O)N1CCN(CC(=O)Nc2ccc(F)cc2)CC1
 : .	.	.	15%	-2%	.	2%	13%
COC(=O)CCC(=O)N1CCCC(C(=O)c2cc(F)ccc2F)C1 (stereo unspecified)
 : .	-3%[46.1 µM]	-1%[46.1 µM]	5%	1%	.	7%	-3%
COC1CCN(C(=O)c2ccc(OC3CCN(CCc4ccccc4)CC3)cc2)CC1
 : .	13%	0%[46.1 µM]	-10%	0%	.	6%	6%
CC(=O)c1ccc(OCc2ccc(C(=O)c3ccccc3)cc2)cc1
 : .	?	?	-28%	-1%	.	-4%	-11%
CCOC(=O)C1CCCN(Cc2c(F)cccc2Cl)C1 (stereo unspecified)
 : -0.5%	2%	-3%	-8%	4%	-3%	-4%	0%
CCOC(=O)C(CC)n1nc(C)n2c(cc3sccc32)c1=O (stereo unspecified)
 : -2.6%	.	.	-17%	-6%	3%	3%	-4%
COc1ccc(NC(=O)N[C@@H](Cc2ccccc2)C(=O)NN)cc1
 : .	-5%	9%	0%	-1%	.	-7%	12%
O=C(Cn1nnc(-c2ccc(Cl)cc2)n1)NCC1CCCCC1
 : 5.2%	-17%	-9%	.	6%	-17%	5%	1%
CCOc1ccccc1N(CC(=O)N/N=C/c1cc(Br)ccc1OC)S(C)(=O)=O
 : -6.3%	?	?	-29%	1%	?	-10%	-8%
C/C(=N/OC(=O)N(C)C)c1ncc(C(F)(F)F)cc1N1CCOCC1
 : 0.2%	-30%	-6%[46.1 µM]	-18%	24%[6.58 µM]	2%	13%	8%
Cc1ccc(N2C(=O)[C@@H]3Cc4ccccc4CN3C2=O)cc1
 : 2.6%	6%	?	0%	-1%	11%	-14%	4%
COc1ccc(-c2nc(N)n(C(C)=O)n2)cc1
 : 0.1%	3%	1%	35%[activator]	3%	5%	1%	0%
CCOC(=O)C1=NNC2(c3ccc(C)cc3)C(=O)N(c3ccccc3)C(=O)C12 (stereo unspecified)
 : .	16%	0%[14.2 µM]	-14%	1%	.	-10%	-4%
COc1ccc(-c2csc(NC(=O)CN3C(=O)NC4(CCCC4)C3=O)n2)c(OC)c1
 : .	-2%[46.1 µM]	-10%	-5%	-3%	.	11%	.
COc1ccc(-n2c(SCC(=O)NCC3CCCO3)nc3c([nH]c4ccccc43)c2=O)cc1 (stereo unspecified)
 : .	-14%[46.1 µM]	-21%[46.1 µM]	0%	3%	.	1%	20%
CC(=O)NC(CCS(C)(=O)=O)C(=O)Nc1cccc(C)c1 (stereo unspecified)
 : 1.5%	.	.	-6%	7%	-2%	9%	-6%
COc1ccc(C2CC(=O)c3cc(-c4nc(-c5cccc([N+](=O)[O-])c5)cs4)c(=O)n(-c4ccc(F)cc4)c3C2)cc1 (stereo unspecified)
 : -3.0%	-5%[46.1 µM]	-2%[46.1 µM]	-6%	.	1µM*	.	.
O=[N+]([O-])c1cccc(C=NN=Cc2ccccc2O)c1
 : .	1%[46.1 µM]	?	35%[activator]	.	.	13%	.
CCNc1ccc(C(=O)OC(C(=O)NC(N)=O)C(C)C)cc1[N+](=O)[O-] (stereo unspecified)
 : .	0%	4%[46.1 µM]	4%	1%	.	1%	.
COc1ccc(S(=O)(=O)N(C)CC(=O)NCCCN2CCOCC2)cc1Cl
 : .	?	-19%[46.1 µM]	0%	-1%	.	2%	-4%
COc1cc(C2=Nc3c(c(C)nn3-c3ccccc3)P(=O)(N3CCOCC3)O2)cc(OC)c1OC (stereo unspecified)
 : -6.9%	3%	-14%	1%	10%	1%	28%	1%
Cc1nc(NC(=O)/C=C/c2ccccc2)sc1C(=O)NCCO
 : .	27%	-7%[46.1 µM]	50%[activator]	-1%	.	5%	1%
O=C(CCN1C(=O)S/C(=C\c2ccccc2)C1=O)NCCCn1ccnc1
 : .	.	.	16%	27%	.	-4%	-10%
COc1cccc(NC(=O)Nc2ccc(Br)cn2)c1
 : .	-5%[46.1 µM]	?	13%	0%	.	-2%	-3%
CCn1c(SCC(=O)N2CCCCC2C)nnc1-c1ccc(S(=O)(=O)N2CCN(C)CC2)cc1 (stereo unspecified)
 : -0.3%	-6%	-6%	10%	-1%	10%	-8%	-2%
CCCOc1cccc(C(=O)Nc2nnn(CCC)n2)c1
 : 0.5%	18%	10%[46.1 µM]	38%[activator]	-4%	3%	8%	-6%
COc1ccc(OC)c(C2SCCN2S(C)(=O)=O)c1 (stereo unspecified)
 : 1.9%	8%	3%	16%	-4%	-4%	-6%	1%

# Three structures from above, arranged by molecular weight, smallest number first:
# Values run as follows: Cruzain Triton	Lassa entry inh	MARV entry inh	2A StopGo	SARS PLpro yeast	Cruzain noTriton	RE007 growth inh	NS1 inh
CCCOc1cccc(C(=O)Nc2nnn(CCC)n2)c1
 : 0.5%	18%	10%[46.1 µM]	38%[activator]	-4%	3%	8%	-6%
Cc1nc(NC(=O)/C=C/c2ccccc2)sc1C(=O)NCCO
 : .	27%	-7%[46.1 µM]	50%[activator]	-1%	.	5%	1%
CCn1c(SCC(=O)N2CCCCC2C)nnc1-c1ccc(S(=O)(=O)N2CCN(C)CC2)cc1 (stereo unspecified)
 : -0.3%	-6%	-6%	10%	-1%	10%	-8%	-2%

# From PubChem
